Assay outcomes as filed in PubChem.
VACV mCherry inh – inhibitors of vaccinia virus infection (mCherry reporter signal) | Vaccinia virus mCherry reporter infection, fluorescence; about a quarter of the inactives have no number | Potency, µM (top dose mostly 36.5 µM), for the others: top-dose activity change, negative = inhibition, usual class: inhibitors | 310,000 tested, 0.63% active; active = well fitted inhibition curve with a large enough effect; inconclusive = small, poorly fitted or top-dose-only effect; inactive = no such curve, though single readings can be large or run the other way; tested in A549 cells; note: nearly all actives have a fitted effect of over 35% in size; inactives centre near -10
Vaccinia Venus – vaccinia inhibition (Venus reporter); Vaccinia virus Venus reporter expression, fluorescence; Potency, µM (series often up to 36.5 µM), without a hit: at the highest dose activity change, negative = inhibition, usual class: inhibitors; 330,000 tested, 0.46% active; AID 720580; active means well fitted inhibition curve with a large enough effect; inconclusive means small, poorly fitted or top-dose-only effect; inactive means no such curve, though single readings can be large or run the other way; tested in A549 cells; note: nearly all actives have a fitted effect of over 30% in size; inactives centre near -10
* hit, by the source's call; i = inactive; u = inconclusive; x = not tested or not shown; [ ] = another dose, or the depositor's remark. % is set by controls: 0 for no effect and ±100 for the full control effect; potency is the fitted concentration of half-maximal effect.

SMILES | VACV mCherry inh | Vaccinia Venus
CN(C)c1ccc(S(=O)(=O)N2CCCCC2)cc1NC(=O)CN1C(=O)NC(C)(c2ccccc2)C1=O (stereo not given) | -23.4% | -12.5%
CCOC(=O)c1c(-c2ccc(F)cc2)csc1NC(=O)C1CCCO1 (stereo not given) | -9.0% | -1.9%
O=c1[nH]c(=S)n(Cc2ccc(F)cc2)c(O)c1C=NCCCn1ccnc1 | -23.5% | -19.6%
CO[C@H]1CN(C)C(=O)c2ccc(NC(=O)C3CCC3)cc2OC[C@H](C)N(Cc2ccc(F)cc2)C[C@@H]1C | -14.8% | -15.9%
C=CCc1cccc(/C=N/NC(=O)CNc2cccc3ccccc23)c1O | u | -27.1%
CC(=O)Nc1nc2ccccc2n1Cc1ccccc1Cl | -3.2% | u
CC(=O)N1CCN(C(=O)CCN(c2ccccc2)S(=O)(=O)c2ccc(C)cc2)CC1 | i | 0.1%
O=C(CSc1nnc(C2CC2)n1-c1ccccc1)NCc1ccco1 | -24.8% | -12.2%
CC(C)CC(NC(=O)C1CCC(C)CC1)C(=O)OCC(=O)c1ccc(Cl)cc1 (stereo not given) | -8.7% | -12.1%
COc1ccc(NC(=O)CSc2nc3ccccc3nc2Cc2ccc(C)cc2)cc1Cl | -9.6% | -18.6%
O=S(=O)(c1ccc(-n2cnnn2)cc1)N1CCN(c2cccc(C(F)(F)F)c2)CC1 | -9.7% | -11.0%
COc1cc2c(cc1OC)C1=C(C#N)CCC(=O)N1CC2 | -17.3% | u
COc1ccc(Nc2nc(C(F)(F)F)nc(C)c2C#N)cc1 | -14.9% | -7.4%
Cc1ccc(-c2nn(-c3ccccc3Cl)cc2C(=O)NCC2CCCO2)cc1 (stereo not given) | -11.4% | -24.0%
CS(=O)(=O)N1CCC(C(=O)c2cccc(Cl)c2)CC1 | -11.2% | -5.7%
CC(C)(C)NC(=O)Cn1c(SCC(=O)NC2CC2)nc2ccccc21 | -10.2% | -6.2%
Cc1ccc(S(=O)(=O)N2CCN(C(=O)CSc3nc(N)cc(=O)[nH]3)CC2)c(C)c1 | -0.5% | -6.8%
S=c1[nH]c(-c2ccccc2)cn1/N=C/c1ccc(Br)cc1 | -9.5% | -7.7%
Cc1cc(C)cc(NC(=O)Nc2ccc3nc(N4CCN(C)CC4)cc(C)c3c2)c1 | -16.6% | -22.8%
Cc1ccc(N2C(=O)[C@@H]3[C@H](C2=O)[C@H]2C=C(C(=O)c4ccccc4)C=CN2[C@@H]3C(=O)c2ccc(Cl)cc2)cc1 | i | -8.9%
COc1ccc2[nH]cc(CCNC(=O)C3CCCNC3=O)c2c1 (stereo not given) | i | -25.1%
Cc1cc(C(=O)CCl)c(C)n1Cc1ccco1 | -10.5% | 0.7%
CCn1c(=O)c2cc(S(=O)(=O)NCc3ccccc3)ccc2n(CC)c1=O | -20.7% | -27.1%
CCn1c(SCC(=O)N2CCN(c3ccccc3)CC2)nc2c(c1=O)SC(C)C2 (stereo not given) | -29.3% | -12.5%
O=S(=O)(NCc1ccc(F)cc1)c1ccc2c(c1)OCCO2 | -11.0% | -17.3%
O=C(Nc1nc(-c2cccc3ccccc23)cs1)c1cnccn1 | i | -5.2%
C=CCSc1nc2ccccc2c(=O)n1C1CCOC(C)(C)C1 (stereo not given) | -23.3% | -10.7%
CCCCC(CC)CO (stereo not given) | -5.4% | -3.9%
COc1ccc(OCCCC(=O)OCC(=O)NNC(=O)c2ccc([N+](=O)[O-])cc2)cc1 | -13.9% | -5.6%
CCCCC(c1nnnn1CC1CCCO1)N1CCN(c2cc(Cl)ccc2C)CC1 (stereo not given) | -6.8% | -9.5%
O=C(C[n+]1ccc(CCSc2ccc(F)cc2)cc1)c1ccccc1 | i | -8.1%
Clc1ccc(N=c2ssnc2Cl)nc1 | u | -11.9%
Cc1cccc(Oc2ccccc2NC(=O)CN2C(=O)NC3(CCCC3)C2=O)c1 | -2.4% | -13.8%
Cc1ccc2c(c1)c1c(c(=O)n(-c3ccccc3C)c(=O)n1Cc1ccccc1F)n2C | -7.7% | -6.9%
Cc1nnc(N2C(=O)C(O)=C(C(=O)c3ccco3)C2c2ccc(F)cc2)s1 (stereo not given) | i | -7.3%
O=c1[nH]c(=O)n(C2CCCCCC2)c(O)c1C=NCc1cccnc1 | -5.9% | -13.7%
CS(=O)(=O)c1ccc(Cl)c(NC(=O)COC(=O)c2ccc(S(=O)(=O)N3CCCC3)cc2)c1 | -12.7% | -0.8%
COc1cccc(NC(=O)C2(C)CCCN2C(=O)C(C)C)c1 (stereo not given) | 16.3% | 6.5%
COc1ccc([N+](=O)[O-])cc1N(CC1CO1)S(=O)(=O)c1ccc(C)cc1 (stereo not given) | i | 2.5%
CC(=O)Nc1cccc(OCCCOc2cccc([N+](=O)[O-])c2)c1 | i | -22.2%
COc1ccc(-c2nsc(NC(=O)c3oc4ccc(Cl)cc4c3C)n2)cc1 | 7.2% | -1.9%
C[C@@H]1CN([C@H](C)CO)C(=O)CCCn2nncc2CO[C@H]1CN(C)S(=O)(=O)c1ccccc1F | -14.9% | -10.3%
CC1(C)CCCN(C(=O)c2ccc3c(c2NCCO)C(=O)c2ccccc2C3=O)C1 | -8.3% | -1.0%
CCCOc1ccc(CSc2ncn[nH]2)cc1 | -12.3% | -17.0%
CCC1CCCCN1S(=O)(=O)c1c(C)n(C)c(=O)n(C)c1=O (stereo not given) | i | -9.4%

Given as labelled records: entries from further up.
> O=S(=O)(NCc1ccc(F)cc1)c1ccc2c(c1)OCCO2
  VACV mCherry inh: -11.0% | Vaccinia Venus: -17.3%

> CC(=O)Nc1nc2ccccc2n1Cc1ccccc1Cl
  VACV mCherry inh: -3.2% | Vaccinia Venus: u

Later entries
SMILES | VACV mCherry inh | Vaccinia Venus
COc1ccc(CCNC(=O)C(=O)NCC2OCCN2S(=O)(=O)c2ccc(OC)c(OC)c2)cc1OC (stereo not given) | -6.2% | -4.6%
C=CCNC(=O)c1ccc(C2SCC(=O)N2Cc2ccco2)cc1 (stereo not given) | -14.2% | 12.6%
Nc1nonc1-n1nnc(C(=O)N/N=C/c2ccc(Cl)cc2)c1-c1ccc2c(c1)OCO2 | -19.2% | -5.3%
CCN(CC(=O)Nc1ccc2c(c1)OCCO2)CC(=O)Nc1ccc(C)c([N+](=O)[O-])c1 | -6.5% | -1.1%
COc1ccc(CN2COc3ccc4c(-c5ccccc5)cc(=O)oc4c3C2)cc1 | -14.3% | -6.7%
OCC[C@@H]1C[C@H](O)[C@@H](O)[C@]2(OCCc3cc(C(F)(F)F)ccc32)O1 | u | -15.3%
Cn1c(=O)c([N+](=O)[O-])c(NC2CCS(=O)(=O)C2)c2ccccc21 (stereo not given) | i | -11.0%
COc1ccc(NC(=O)CN(c2ccccc2OC)S(=O)(=O)c2cccs2)cc1Cl | -7.6% | -24.0%
COc1ccc(OC)c(NC(=O)CSc2nc3n[nH]c(C)c3c(=N)n2-c2cccc(Cl)c2C)c1 | -26.2% | u
O=c1[nH]cc(CCc2ccccc2)c2ncncc12 | i | -19.1%
COc1ccc(N(C)S(=O)(=O)c2cccc(C(=O)NCC3CCCCC3)c2)cc1 | -17.5% | -9.2%
C=CCn1c(SCC(=O)NC(=O)c2cccc([N+](=O)[O-])c2)nnc1-c1ccccc1 | i | -16.5%
Cc1onc(-c2ccccc2Cl)c1C(=O)Nc1nnc(C2CCCCC2)s1 | -14.8% | -15.8%
COC(=O)c1ccc(CSc2nnc(-c3c[nH]c4ccccc34)n2-c2ccccc2)cc1 | -9.6% | -12.4%
O=C(CN1C(=O)CSc2ccc(S(=O)(=O)N3CCCCCC3)cc21)NCCc1ccccc1 | -9.9% | 6.1%
COc1ccc(C/C(O)=C(\C#N)c2nc3ccccc3[nH]2)cc1OC | x | -7.0%
COC(=O)c1cccc2nc3c(C(C)O)cccc3nc12 (stereo not given) | -7.8% | 6.7%
CCN1C(=O)/C(=C/c2ccc(N3CCCC3)cc2)NC1=S | -14.2% | 35.8%[activator]
CC(=O)N1CCC(C(=O)Nc2ccc(S(=O)(=O)N3CCCC(C)C3)cc2)CC1 (stereo not given) | -12.9% | u
Cc1ccc(NC(=O)c2cc([N+](=O)[O-])ccc2N2CCCC2)cc1 | i | -15.6%
Cn1c(CN2CCOCC2)nc2cc(NC(=O)c3ccccc3Cl)ccc21 | -2.3% | -8.0%
CCOC(=O)CCC(NC(=O)CCC(=O)NC(CCC(=O)OCC)C(=O)OCC)C(=O)OCC (stereo not given) | -10.0% | -8.1%
O=C(O)CSc1nc2sc3c(c2c(=O)n1-c1ccccc1)CCC3 | 1.6% | -19.8%
O=C(/C(=C/c1ccccc1)n1cncn1)c1ccc(Cl)cc1Cl | -12.6% | -22.7%
O=C(Nc1ccc(Cl)cc1)OC1CN2CCC1CC2 (stereo not given) | -21.9% | -14.6%
COc1cccc(C(=O)Nc2ccc(Cl)c(-c3nc4ccccc4[nH]3)c2)c1 | -22.3% | u
C/C=C/c1ccc(OCC(=O)N(C)CC(=O)Nc2ccc(F)cc2)c(OC)c1 | u | -22.4%
O=C(C[C@@H]1C[C@H]2c3cc(NC(=O)NC4CCCCC4)ccc3O[C@H]2[C@H](CO)O1)NC1CCCCC1 | i | -14.6%
COc1ccc(S(=O)(=O)n2cnc3ccccc32)cc1 | -2.4% | -15.8%
CCOc1ccc(S(=O)(=O)N(CC(=O)NC2CCCCC2C)Cc2ccco2)cc1 (stereo not given) | -12.4% | -25.8%

The closing 6 compounds of the part above open the next one.
SMILES | VACV mCherry inh | Vaccinia Venus
O=C(Nc1ccc(Cl)cc1)OC1CN2CCC1CC2 (stereo not given) | -21.9% | -14.6%
COc1cccc(C(=O)Nc2ccc(Cl)c(-c3nc4ccccc4[nH]3)c2)c1 | -22.3% | u
C/C=C/c1ccc(OCC(=O)N(C)CC(=O)Nc2ccc(F)cc2)c(OC)c1 | u | -22.4%
O=C(C[C@@H]1C[C@H]2c3cc(NC(=O)NC4CCCCC4)ccc3O[C@H]2[C@H](CO)O1)NC1CCCCC1 | i | -14.6%
COc1ccc(S(=O)(=O)n2cnc3ccccc32)cc1 | -2.4% | -15.8%
CCOc1ccc(S(=O)(=O)N(CC(=O)NC2CCCCC2C)Cc2ccco2)cc1 (stereo not given) | -12.4% | -25.8%
COCc1ccc(C(=O)N2CCCC(Nc3ccc4c(c3)OCCO4)C2)o1 (stereo not given) | i | -16.1%
Cn1cnc(S(=O)(=O)N2CCCC(C(=O)Nc3ccc(F)cc3Cl)C2)c1 (stereo not given) | -23.8% | -19.4%
COc1cccc(NC(=O)C(CCSC)NC(=O)C2CCC(C)CC2)c1 (stereo not given) | -13.0% | -4.7%
C[C@H](CO)N1C[C@H](C)[C@@H](CN(C)S(=O)(=O)c2ccc(F)cc2)Oc2c(NC(=O)Nc3ccc4c(c3)OCO4)cccc2C1=O | u | u
Cc1cccc(NC(=O)CCS(=O)(=O)c2cc(Br)cc3c2N(C(=O)C2CC2)CC3)c1C | -3.4% | -2.7%
O=C(O)C1NCCc2ccccc21 (stereo not given) | i | -9.6%
O=C(Oc1ccc2ccc(=O)oc2c1)c1ccco1 | -0.4% | -9.5%
COc1ccccc1NC(=O)CN1C(=O)C2(SCC(=O)N2c2ccc(C)c(C)c2)c2ccccc21 (stereo not given) | -24.9% | -16.6%
O=c1cc(-c2ccc([N+](=O)[O-])cc2)nc2cc(-c3ccc(F)cc3)[nH]n12 | -11.2% | -1.6%
O=C(c1cccc(NS(=O)(=O)c2cccc([N+](=O)[O-])c2)c1)N1CCOCC1 | -1.5% | -9.2%
CCOc1ccc(NC(=O)Cc2ccc(-n3c(C)nc4cccnc43)cc2)cc1 | -11.1% | -7.3%
CCOC(=O)C1=C(CC)NC2=C(C(=O)CCC2)C1c1ccc(OC)c(OC)c1 (stereo not given) | -18.3% | -11.3%
COc1ccc(CNC(=O)C2(CC3CC(c4ccccc4)=NO3)CCN(C(=O)C3CCCC3)CC2)cc1 (stereo not given) | 8.4% | -18.0%
N#Cc1c(Cl)nc(Cl)c2c1CCN(Cc1ccccc1)C2 | -21.4% | -15.2%
CCOc1ccccc1N(C(=O)c1ccccc1Cl)C1=NC(C)(C)CS1 | -17.0% | -11.7%
CCCCNC(=O)C1CCCN(S(=O)(=O)CCC)C1 (stereo not given) | -4.6% | -4.8%
COc1ccc(NC(=O)CCS(=O)(=O)c2ccc(Cl)cc2)cc1 | i | -15.5%
Cn1nc(C(=O)N2CCc3ccccc3C2)c2ccccc2c1=O | x | 0.1%
COc1ccc(-c2sc3ccc(N4CCOCC4)cc3c2C#CCO)cc1 | -16.1% | u
CC1(C(=O)NCc2ccccc2Br)CCN1Cc1ccccc1OC(F)F (stereo not given) | 24.8% | -12.1%
Cc1oc(-c2cccc(Cl)c2)nc1CS(=O)(=O)CC(=O)NC1CCCC1 | -22.8% | -18.3%
CCOc1cccc(CNCCCSc2nnnn2C)c1 | -7.5% | -3.5%
COc1ccc(NS(=O)(=O)c2cccc(C(=O)N3CCOCC3)c2)cc1 | i | -11.0%
O=C(c1ccc2c(c1)OCO2)N1CCCN(C(=O)c2ccc3c(c2)OCO3)CC1 | x | 1.6%
Cn1cc(S(=O)(=O)N2CCN(c3ccccc3F)CC2)c(=O)n(C)c1=O | i | -10.1%
Cc1cccc(C(=O)Nc2ccccc2SCc2cc(=O)c3cccc(C)c3[nH]2)c1 | 3.4% | 7.9%
CCOc1nc(CC(C)C)c2c(c1C#N)CC(C)(C)OC2 | -28.0% | -7.6%
O=C(NCC1CCCO1)c1ccc(N2C(=O)C3CCCCC3C2=O)cc1 (stereo not given) | -20.2% | 1.5%
